Calb biofilm kill = clotrimazole potentiators killing C. albicans biofilm, primary screen, 4-compound mixtures; C. albicans biofilm persisters + clotrimazole, fluorescence viability; primary screen in compound mixtures of four per well; inhibition, % at 7.6 µM; 120,000 compounds, 0.02% hits;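 active means inhibition above 30.3% in the primary screen of four-compound pools, then above 30% when the compound was retested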;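 further: compounds exposed to preformed 24 h biofilms for 48 h; the number belongs to the whole pool; some results filed as inactive read as strong as hits; inactives centre near 12; 0% = biofilm with clotrimazole alone and 100% = kill control; retested singly at about 60 µM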
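Test system: C. albicans CAF4-2 wild-type biofilms; buffer or medium: RPMI/MOPS medium, pH 7.0; schedule: 24 h biofilm formation, then 48 h compound exposure, 37 °C; detection: Alamar Blue fluorescence; measure: percent inhibition of biofilm viability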
Starred values were filed as active, the others as inactive. This is a subset (hit frequency here may not be typical).

No. | SMILES | Calb biofilm kill
1 | O=C(O)Cn1cnc2c(oc3ccccc32)c1=O | 16.9
2 | CC(C)(C)OC(=O)N1Cc2cc3ccccc3nc2C1CO (stereo not given) | 17.0
3 | Cc1ccc(O)c(C=Nc2cc(C)ccc2O)c1 | 2.8
4 | O=C(CCc1ccccc1)c1c(O)cc(O)cc1O | 18.5
5 | O=C(O)Cn1ccc2ccccc21 | 19.3
6 | CC(C(=O)Nc1ccccc1)N1C(=O)c2ccccc2C1=O (stereo not given) | 11.5
7 | COc1ccc(-n2c(SCC(=O)Nc3ccc(Br)cc3)nc(O)cc2=O)cc1 | 11.1
8 | Cc1cccc(C)c1NS(=O)(=O)c1ccc2c(c1)NC(=O)CO2 | 28.7
9 | CCNC(=O)c1ccccc1SCc1ccccc1 | 1.9
10 | COc1ccc(Br)cc1/C=C/C(=O)c1ccc(NC(C)=O)cc1 | 23.3
11 | Cc1cc(C)n(-c2ccc(Oc3ccccc3)c(S(=O)(=O)O)c2)n1 | 5.4
12 | C=CCn1c2ccccc2n2nc(C)c(=O)nc12 | 10.8
13 | COc1cc(OC)cc(C(=O)N[C@H](C(=O)Nc2ccc(NC(C)=O)cc2)C(C)C)c1 | -29.7
14 | Cc1ccc(NC(=O)CN2CCC(Cc3ccccc3)CC2)cc1S(=O)(=O)N(C)C | 10.5
15 | COC(=O)Cc1c(O)ccn(CCc2c[nH]c3ccc(OC)cc23)c1=O | 15.2
16 | Cc1ccc(-n2c(=O)[nH]c3ncccc3c2=O)cc1 | 4.9
17 | CC(/C=C/c1ccccc1)=N\NC(=O)CSc1ccccn1 | 5.0
18 | Cc1ccc(-n2nc(C)c(Sc3ccccc3[N+](=O)[O-])c2N)cc1 | 10.3
19 | Cc1ccc(O)c(NC2=C(Cl)C(=O)N(Cc3ccccc3)C2=O)c1 | -1.2
20 | CC(=O)Nc1ccc(NC(=S)NC(=O)/C=C/c2ccc(Cl)cc2)cc1 | 10.9
21 | COc1ccc(Nc2nc(C)nc3c2nnn3Cc2ccccc2)cc1OC | 12.0
22 | CCOc1ccc(Br)cc1S(=O)(=O)Nc1ccc(NC(=O)c2ccccc2C)cc1 | -14.4
23 | CCNC(=S)N/N=C/c1cn(Cc2ccccc2F)c2ccccc12 | 7.5
24 | NC(=O)CC1NC(=O)c2cc([N+](=O)[O-])cc(I)c2OCCC(C(N)=O)NC(=O)[C@@H]2CCCN2C1=O (stereo not given in full) | 17.2
25 | CC(C)Cc1nc(Cl)c(C#N)c2c1CCC2 | 20.6
26 | O=C(CN(C(=O)c1csnn1)c1cccc(F)c1)NCc1ccc(F)cc1 | 5.8
27 | COc1ccc(N(CCN2C(=O)c3ccccc3C2=O)C(=O)c2cccc([N+](=O)[O-])c2)cc1 | 7.8
28 | CCOC(=O)c1ccc(N2CCN(c3ccc(F)cc3)CC2)c(NC(=O)Nc2cccc(OC)c2)c1 | 10.4
29 | CCn1cc(CNC(=O)c2ccc(C)s2)cn1 | 11.4
30 | N#Cc1cnn2c(-c3cccc(C(F)(F)F)c3)ccnc12 | 1.3
31 | N#C/C(=C\c1ccc(-c2cccc([N+](=O)[O-])c2)o1)c1nnc(N2CCOCC2)n1-c1ccccc1 | 18.2
32 | Cc1cc2cc(CNC(=O)Cc3ccc([N+](=O)[O-])cc3)ccc2[nH]1 | 11.6
33 | COc1cc(CNCc2cccnc2)ccc1OCC(=O)NC(C)(C)C | 22.2
34 | COc1ccccc1NS(=O)(=O)c1ccc(NN=C2CCCCC2)c([N+](=O)[O-])c1 | 9.4
35 | Cc1c(CCC(=O)O)c(=O)oc2cc3occ(-c4ccccc4)c3cc12 | 7.1
36 | CC(c1c(O)c2ccccc2[nH]c1=O)C1(C)CCC(O)C(C)(C)O1 (stereo not given) | 16.2
37 | CCOC(=O)C1(CC2CCCCO2)CCN(S(=O)(=O)c2cc(C)cs2)CC1 (stereo not given) | 11.2
38 | CCOCCCN(C(=O)Cn1nnc(-c2ccc(C)o2)n1)C(C(=O)NCC1CCCO1)c1ccc(F)cc1 (stereo not given) | 17.9
39 | CCN1CCN(Cc2cc(=O)oc3ccc(C)cc23)CC1 | 13.4
40 | Nc1nc(N)c2sc3nc(C(F)(F)F)cc(C(F)(F)F)c3c2n1 | 12.8
41 | O=C(C(=O)N1CCCC1CO)N1CCCC1CO (stereo not given) | 14.9
42 | CCN(CC)CCCNc1nc(CN2CCOCC2)nc2sc3c(c12)CCC3 | 11.8
43 | CC/C(=C/c1sc2ccc(C)cc2[n+]1CCCS(=O)(=O)[O-])SC | 32.2
44 | COc1ccc(C(C(=O)NC2CCCC2)N(CC2CCCO2)C(=O)Cc2cccs2)cc1OC (stereo not given) | 25.7
45 | Cc1ccc(Cl)cc1N1CCN(C(=O)c2cccc3c(=O)c(C)c(-c4ccccc4)oc23)CC1 | 14.2
46 | COc1cccc(OCC(O)CN2CCN(c3ccccc3)CC2)c1 (stereo not given) | 23.7
47 | NC(=O)c1ccsc1NC(=O)c1coc2ccccc2c1=O | 18.1
48 | O=C(Nc1ccccc1)Nc1ccc(F)cc1F | 24.9
49 | COc1ccc(-c2c(C#N)c(N)nc3sc(C(=O)c4ccccc4)c(N)c23)cc1 | 8.6
50 | O=c1[nH]c(CSc2nc3ccccc3s2)nc2cc(Cl)ccc12 | 22.0
51 | CCN(CC)c1ccc(/C=C(\C#N)c2ccccn2)cc1 | 14.3
52 | COc1ccc(-c2nc3cc(C)ccn3c2NCc2ccc3c(c2)OCO3)cc1 | 8.2
53 | O=C(N/N=C\c1ccccc1OCc1ccccc1)c1ccco1 | 15.4
54 | CN(C(=O)CSc1nnc(-c2cccc(F)c2)n1N)C1CCS(=O)(=O)C1 (stereo not given) | 14.2
55 | Cc1ccc(S(=O)(=O)Nc2ccc(Oc3cccnc3)nc2)cc1 | 17.6
56 | CCC(CC)NC(=O)/C=C/c1ccccc1Cl | 11.3
57 | O=C(Nc1ccccc1)N1CCN(c2ccc(F)cc2)CC1 | 10.1
58 | O=C(COC(=O)c1ccc(O)cc1)Nc1ccc(Cl)cc1 | 22.4
59 | NS(=O)(=O)c1ccc(NC(=O)COC(=O)c2cnc(Cl)c(Cl)c2)cc1 | -0.5
60 | COC(=O)c1ccc(NC(=O)C(=O)NCC2CCCO2)cc1 (stereo not given) | 10.1

A different layout for some results above.
53. O=C(N/N=C\c1ccccc1OCc1ccccc1)c1ccco1
  Calb biofilm kill: 15.4
54. CN(C(=O)CSc1nnc(-c2cccc(F)c2)n1N)C1CCS(=O)(=O)C1 (stereo not given)
  Calb biofilm kill: 14.2
55. Cc1ccc(S(=O)(=O)Nc2ccc(Oc3cccnc3)nc2)cc1
  Calb biofilm kill: 17.6

(cont.)
No. | SMILES | Calb biofilm kill
61 | Cc1ccc([N+](=O)[O-])cc1-c1ccc(/C=N\n2nnnc2N)o1 | 7.1
62 | CC(C)NS(=O)(=O)c1ccc(OCC(=O)Nc2ccc(F)cc2)cc1 | 13.3
63 | CC(C)(C)C1CCC(OC(=O)CN2CCCCC2)CC1 (stereo not given) | 9.7
64 | CCN(CC)CCCNC(=O)C(C)Sc1nc(-c2ccccc2)cc(C(F)(F)F)n1 (stereo not given) | 15.4
65 | O=C(Nc1cc(S(=O)(=O)N2CCOCC2)ccc1O)c1ccc(NS(=O)(=O)c2ccc(Cl)s2)cc1 | 6.0
66 | Cc1ccc(N2C(=O)c3ccc(C(=O)N4CCOCC4)cc3C2=O)cc1C | 10.5
67 | Cc1cnc(C(=O)OCC(=O)NC(C)CCc2ccccc2)cn1 (stereo not given) | 21.5
68 | c1ccc(-c2noc(-c3cccs3)n2)nc1 | 2.6
69 | CC1(c2nnc(Cc3ccccc3)o2)CC(c2ccc([N+](=O)[O-])cc2)=NO1 (stereo not given) | 15.4
70 | CCCc1[nH]n(-c2ccc(F)cc2)c(=O)c1C=Nc1cccc(F)c1 | 14.5
71 | O=[N+]([O-])c1cc(-c2nnc(Nc3ccccc3)c3ccccc23)ccc1N1CCOCC1 | 9.2
72 | Cc1cccc(Cn2cnc3c(N)c(C)c(C)cc32)c1 | 7.2
73 | CCN(CC)S(=O)(=O)c1ccc2c(c1)nc(CCC(=O)Nc1ccc(N3CCOCC3)cc1)n2C | 4.2
74 | CCNC(=O)NC(=O)C(C)OC(=O)CCCSc1nc2ccccc2s1 (stereo not given) | 16.3
75 | COc1ccc(C(=O)N2CCCC(c3ccccc3)=N2)cc1 | 11.6
76 | Cn1c(S(=O)(=O)O)nc2ccccc21 | 17.8
77 | C(=N\Nc1ccccn1)/c1c[nH]c2ccccc12 | 15.5
78 | CC(O)[C@@H](C(=O)N1CCNCC1)n1cc(CCCCN)nn1 (stereo not given in full) | 26.1
79 | CC(=O)/C(=N/Nc1ccc(C)cc1)Sc1nnc(CCc2ccccc2)n1-c1ccccc1 | 12.3
80 | O=C(Cn1cc(C(=O)c2ccco2)c2ccccc21)NC1CCCCC1 | 16.8
81 | COC(=O)CSc1nnc(CNC(=O)c2ccc(OC)c(OC)c2)n1C | 19.5
82 | COc1cc(-c2nc3ccccn3c2/N=C/c2cccc(F)c2)ccc1O | 3.4
83 | NC(=O)c1cccnc1OCC(F)(F)F | 19.1
84 | COC(=O)CC1(C(=O)OC)Oc2ccc(Br)cc2C(=O)N1c1cc(Cl)cc(Cl)c1 (stereo not given) | 21.6
85 | c1ccc(CCn2nnnc2C(c2cccnc2)N2CCOCC2)cc1 (stereo not given) | 9.4
86 | COC(C[C@@H](O)CC(=O)[C@@H](C)OCc1ccccc1)OC | 9.2
87 | COCCNC(=S)N1CCN(C/C=C/c2ccccc2)CC1 | 4.8
88 | Cc1sc2ncnc(SCC(=O)NC(C)(C)C)c2c1C | 6.3
89 | Cc1cc(OCc2cc3c(cc2Cl)OCO3)c2c(C)cc(=O)oc2c1 | 24.5
90 | CCOc1cc2c(cc1C=O)OC(C)C2 (stereo not given) | -8.6
91 | CCC(C)(C)NC(=O)Cn1c(-c2ccc(C)cc2)noc1=O | 10.9
92 | COc1ccccc1/C=N/NC(=O)c1ccc(=O)n(C)c1 | 10.0
93 | COc1ccc(/C=C/C(=O)NCCC(=O)N2CCCN(C)CC2)cc1 | 5.8
94 | CCC(=O)N(CCC1(c2ccccc2OC)CCOC(C(C)C)C1)Cc1ccco1 (stereo not given) | 21.9
95 | COc1ccc(NC(=S)Nc2cc(C)cc(C)n2)cc1OC | 14.4
96 | COC(=O)CN(C(=S)Nc1ccc(F)cc1)C1CC(=O)N(c2ccccc2)C1=O (stereo not given) | 20.5
97 | CSc1nc(Cl)c(Cc2ccc(OCC(C)C)cc2)c(N2CCOCC2)n1 | 25.2
98 | COc1ccc(-c2n[nH]c(C)c2-c2cnn(-c3ccccc3)c2)c(O)c1 | -2.8
99 | COc1cccc(C(=O)N2C(C(=O)O)CSC2c2ccccc2Cl)c1 (stereo not given) | 6.7
100 | Cc1cccc(N2CCN(C(c3ccccc3)c3nnnn3C(C)(C)C)CC2)c1C (stereo not given) | 11.5
101 | CCOC(=O)C1CCN(Cc2nc3ccc([N+](=O)[O-])cc3c(=O)n2-c2ccc(OC)cc2OC)CC1 | 7.0
102 | CCOC(=O)c1ccc([N+](=O)[O-])cc1NC(C)=O | 4.4
103 | NC(=O)CC1Nc2cccc3cccc(c23)NC1=O (stereo not given) | -6.0
104 | O=C1NCCc2c1[nH]c1ccc([N+](=O)[O-])cc21 | 6.7
105 | S=C(Nc1ccccc1)Nc1ccccc1Br | 1.4
106 | Cc1c(C(=O)OCC(=O)Nc2ccc(S(N)(=O)=O)cc2)oc2c1ccc1ccccc12 | 2.5
107 | COc1cccc(NC(=S)NNC(=O)CCn2cc([N+](=O)[O-])cn2)c1 | 7.2
108 | Cc1nnc(SCC(=O)NNC(=O)COc2ccc(Cl)cc2)s1 | -0.7
109 | CC(=O)Nc1nc(C2CC2)cc(-c2ccccc2)c1C#N | 2.8
110 | CC(C)Sc1snnc1-c1ccccc1 | 10.0
111 | COc1ccc(CN2CC(=O)N(c3ccc(C)cc3C)C2=S)cc1OC | 4.3
112 | CN(N)c1ccc2c(C(F)(F)F)cc(C(F)(F)F)nc2n1 | 13.0
113 | CCCNc1nc(C)cc(-c2cc(-c3ccc(Cl)cc3)on2)n1 | 16.1
114 | COC(=O)COc1cccc2c(=O)n(CC(=O)N3CCCCC3)ccc12 | 29.6
115 | Cc1ccc(S(=O)(=O)CCSc2n[nH]c(=O)n2-c2ccccc2)cc1 | 16.9
116 | O=C(O)Cc1ccc(NC(=S)Nc2cccc(Cl)c2Cl)cc1 | 17.9
117 | CCN(CC)CCC(c1cc(OC)c(OC)c(OC)c1)c1c(OC)cc(OC)c2c(-c3ccccc3)cc(=O)oc12 (stereo not given) | 16.7
118 | COC(=O)c1sccc1N/N=C/c1cccc(Oc2ccccc2)c1 | 13.8
119 | Cc1ccccc1NS(=O)(=O)c1ccc(Cl)cc1 | 28.6
120 | CSCCC(NC(N)=O)C(=O)Nc1ccc(F)c(Cl)c1 (stereo not given) | 21.3

Continuation:
No. | SMILES | Calb biofilm kill
121 | CCN(CC)CCCNC(=O)CCC(=O)Nc1ccc2nc(N3CCC(C)CC3)cc(C)c2c1 | 12.3
122 | O=C(CC1Nc2ccccc2NC1=O)Nc1ccccc1NC(=O)CC1Nc2ccccc2NC1=O (stereo not given) | 10.2
123 | COc1ccc(CCN(C)C(=O)CSc2nnnn2C)cc1OC | 10.0
124 | CCCn1nc(C(=O)OCC(=O)Nc2cccc(OC)c2)c2ccccc2c1=O | -3.5
125 | C/C(=N\NC(=O)c1c(Br)c(C)nn1C)c1ccc(NC(=O)c2ccoc2C)cc1 | 4.3
126 | N/C(=N\O)c1ccc(Oc2ccccc2Cl)c([N+](=O)[O-])c1 | 22.3
127 | COCCN(CCOC)C(=O)C1CCCN(S(=O)(=O)c2ccc(NC(=O)OC)cc2)C1 (stereo not given) | 14.3
128 | O=C(Nc1nnc(-c2cccc(F)c2)s1)Nc1ccccc1F | 3.1
129 | NNc1ccc(Cl)nn1 | 2.6

Source: PubChem
